Lassa entry inh – qHTS for Inhibitors of binding or entry into cells for Lassa Virus; Lassa virus pseudotype entry inhibition, cell reporter; control for the full effect not named in the record; Potency, µM (top dose mostly 37.9 µM), without a hit: at the highest dose activity change, negative = inhibition, actives largely listed as inhibitors; 1.2% of 300,000 active; AID 540256, 2011; active means well fitted inhibition curve with a large enough effect; inconclusive means small, poorly fitted or top-dose-only effect, or effect the other way; inactive means flat fitted curve, though single readings scatter; tested in HEK293 cells; further: on the % scale 0 is the no-effect control and ±100 the full control effect; nearly all actives have a fitted effect of over 50% in size; luciferase read-out
SARS PLP yeast – qHTS of Yeast-based Assay for SARS-CoV PLP. S. cerevisiae expressing SARS-CoV PLpro, growth rescue; control for the full effect not named in the record. Potency, µM (doses to about 32.9 µM), for inactives: at the top dose activity, positive = growth rescue. 0.19% of 330,000 active; active means well fitted rising curve with a large enough effect; inconclusive means small, poorly fitted or top-dose-only effect; inactive means no such curve, though single readings can be large or run the other way; further: 0% is about no effect; nearly all actives have a fitted effect of over 55% in size; growth read by luminescence after 48 h
Cruzain noTriton – qHTS Assay for Promiscuous and Specific Inhibitors of Cruzain (without detergent) | Cruzipain (Trypanosoma cruzi), P25779 | purified cruzain, Z-FR-AMC fluorescence, no detergent | Potency, µM, inactives show max response, negative = inhibition, actives largely listed as inhibitors | 2.3% of 200,000 active | AID 1476, 2009;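 further: plate controls were enzyme without inhibitor for no effect and buffer without enzyme for full effect; nearly all actives have a fitted effect of over 40% in size; top concentration of the series not given in the record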
Target sequence (P25779 123-467 limits assumed): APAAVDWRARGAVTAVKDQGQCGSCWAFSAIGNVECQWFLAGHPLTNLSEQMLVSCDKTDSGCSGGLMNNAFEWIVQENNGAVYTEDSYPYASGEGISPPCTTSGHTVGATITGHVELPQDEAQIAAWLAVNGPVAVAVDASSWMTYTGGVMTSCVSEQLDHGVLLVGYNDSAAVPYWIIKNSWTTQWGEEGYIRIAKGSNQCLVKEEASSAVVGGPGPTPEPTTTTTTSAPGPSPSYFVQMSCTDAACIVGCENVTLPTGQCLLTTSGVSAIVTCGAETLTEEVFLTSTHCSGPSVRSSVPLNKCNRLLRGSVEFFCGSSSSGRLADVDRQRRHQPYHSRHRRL
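Detergent-free condition (0.00005% Triton X-100) in acetate buffer pH 5.5 with DTT. 1.5 nM enzyme and compound were pre-mixed 15 min, then 2 uM Z-FR-AMC substrate added; reaction progress from fluorescence change between first and third reads (60 s).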
Marburg entry inh – qHTS for inhibitors of binding or entry into cells for Marburg Virus; 1.8% of 300,000 active; AID 540276, 2011; Potency, µM (titrated, usually from 37.8 µM), without a hit: top-dose activity change, negative = inhibition, usual class: inhibitors; Marburg virus pseudotyped entry inhibition, cell reporter; control for the full effect not named in the record; about a third of the inactives were read at about 46 µM; active = well fitted inhibition curve with a large enough effect; inconclusive = small, poorly fitted or top-dose-only effect, or effect the other way; inactive = flat fitted curve, though single readings scatter; tested in HEK293 cells; about a fifth of its hits are not listed in these tables; further: on the % scale 0 is the no-effect control and ±100 the full control effect; luciferase read-out
NS1 inh – qHTS Assay for Inhibitors of Influenza NS1 Protein Function; Potency, µM (doses to about 46.1 µM), for inactives: at the highest dose activity, positive = more growth; AID 2326, 2010; S. cerevisiae slowed by influenza A NS1, growth recovery by OD600; 0.4% of 270,000 active; active means well fitted rising curve with a large enough effect; inconclusive means small, poorly fitted or top-dose-only effect; inactive means no such curve, though single readings can be large or run the other way; further: nearly all actives have a fitted effect of over 50% in size
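Read-out: OD600 growth recovery of NS1-expressing budding yeast. Cells grown overnight at 30C in -URA glucose medium, washed, resuspended and diluted 1:100 in 2% galactose assay medium, pH 6.0. Same strain lacking NS1 served as positive control.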
2A StopGo – High Throughput Screening for Foot and Mouth Disease Virus Antivirals; human cells with a luciferase reporter of 2A StopGo recoding; control for the full effect not named in the record; Potency, µM (top dose mostly 57.9 µM), for the others: at the highest dose signal change, negative = less light; 1.2% of 410,000 active; AID 1159524, 2015; active = well fitted falling curve with a large enough effect; inconclusive = small, poorly fitted or top-dose-only effect; inactive = no such curve, though single readings can be large or run the other way; tested in HEK293T cells; further: on the % scale 0 is the no-effect control and ±100 the full control effect; nearly all actives have a fitted effect of over 45% in size; luciferase light after 4 h
Cruzain Triton – qHTS Assay for Promiscuous and Specific Inhibitors of Cruzain (with detergent). Cruzipain (Trypanosoma cruzi), P25779. purified cruzain, Z-FR-AMC fluorescence, 0.01% Triton. Potency, µM, for inactives: max response, negative = inhibition, most hits filed as inhibitors. 0.43% of 200,000 active;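 further: plate controls were neutral wells for no effect and buffer without enzyme for full effect; nearly all actives have a fitted effect of over 40% in size; top concentration of the series not given in the record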
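Purified cruzain (1.5 nM final) was preincubated with compounds for 15 min at room temperature in 100 mM sodium acetate pH 5.5, 5 mM DTT, 0.01% Triton X-100. Reaction started with 2 uM Z-FR-AMC; AMC fluorescence change over 60 s gave activity.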
RE007 growth inh – qHTS Assay for Inhibitors of the HIV-1 protein Vpr. S. pombe RE007 Vpr strain, BacTiter-Glo ATP luminescence, 24 h; control for the full effect not named in the record. Potency, µM (series often up to 92.2 µM), inactives show at the top dose activity change, negative = less growth. 0.21% of 360,000 active; active = well fitted falling curve with a large enough effect; inconclusive = small, poorly fitted or top-dose-only effect; inactive = no such curve, though single readings can be large or run the other way;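 further: on the % scale 0 is the no-effect control and ±100 the full control effect; nearly all actives have a fitted effect of over 50% in size; the assay follows cell death caused by Vpr and the record does not say whether a fall means rescue or toxicity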
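Fission yeast strain RE007, carrying one chromosomally integrated HIV-1 vpr copy, was seeded at OD 0.01 in PMG+AL medium with 23 nL pinned compound. After 24 h at 30 °C and 99% humidity, viability was read by BacTiter-Glo luminescence.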
Active calls of the source: *; ? = inconclusive; . = not tested or not shown; & = joins results of further samples; [ ] = dose if it differs, or a comment. Unless noted, the call rests on the fitted dose curve; in most records, active means well fitted curve in the direction sought with a large enough effect; inconclusive means small, poorly fitted or top-dose-only effect, or another doubt; inactive means no such curve, though single readings can be large; an effect the other way counts as inactive or inconclusive. Potency means the concentration at half of the fitted maximal effect.

SMILES	Lassa entry inh	SARS PLP yeast	Cruzain noTriton	Marburg entry inh	NS1 inh	2A StopGo	Cruzain Triton	RE007 growth inh
CCn1c(C)nc2cc(C(=O)OC(C(F)(F)C(F)F)C(F)(F)C(F)F)ccc21	?	-33%	?	14µM*	-77%	-11%	-9.4%	-21%
O=C(CCC(=O)OCC(=O)c1ccc(-c2ccccc2)cc1)Nc1cccc2cccnc12	5%	5%	-6%	3%[46.1 µM]	9%	5%	5.3%	2%
CCCCOc1ccc(C2C(=O)N(C3CCCCC3)CC(=O)N2C2CCCCC2)cc1 (stereo not given)	-5%[46.1 µM]	.	-4%	.	.	-8%	0.6%	.
CN1CCN(C(CNC(=O)C(=O)Nc2ccc3c(c2)OCO3)c2ccc(F)cc2)CC1 (stereo not given)	-28%	-2%	.	-21%[46.1 µM]	.	-13%	.	21%
COc1ccc(NC(=O)c2c(NC(=O)CCC(=O)O)sc3c2CCCCC3)cc1	.	0%	.	.	4%	9%	.	-7%
CC1=CS(=O)(=O)CC1Sc1nc2ccccc2[nH]1 (stereo not given)	-19%	-3%	-2%	-15%	8%	.	3.9%	3%
CCCCN(C)CCCNC(=O)CN1N=C(c2ccc(OC)cc2)CCC1=O	-4%[46.1 µM]	.	3%	.	.	-13%	-3.0%	.
CCOc1ccc(OCC)c(Nc2cc(C)nc3nc(C)nn23)c1	-15%	17%	2%	-30%	-40%	-13%	0.2%	1%
O=c1c2ccccc2nc(/C=C/c2ccc(Br)cc2)n1CCO	?	.	.	?	.	-22%	.	-1%
CN(C(=O)COc1ccc2ccc(=O)oc2c1)C1CCS(=O)(=O)C1 (stereo not given)	.	0%	.	.	-4%	-1%	.	0%
COc1ccc([N+](=O)[O-])cc1N(CC(=O)NCCC1=CCCCC1)S(C)(=O)=O	?	3%	-4%	-23%	-3%	-17%	-6.3%	-2%
O=C1C2C(C(=O)N1c1ccncc1)C1C=CC2C12CC2 (stereo not given)	0%	1%	?	-3%	-6%	-23%	2.5%	17%
Cc1ccc(-n2c(O)c(/C=N/NC(=O)c3ccncc3)c(=O)[nH]c2=O)cc1	9%	6%	-1%	12%	0%	3%	-7.9%	-5%
CCc1cc(=O)oc2cc(C)cc(OCC(=O)N[C@@H](CSCc3ccccc3)C(=O)O)c12	.	?	.	.	10µM*	-6%	.	11%
CC1CC(NC(=O)c2c(O)nc3sccn3c2=O)CC(C)(C)C1 (stereo not given)	-18%	0%	.	?	.	-14%	.	-11%
O=C(COC(=O)C1C2CC3OC(=O)C1C3C2)Nc1ccccc1 (stereo not given)	10%[46.1 µM]	2%	.	0%[46.1 µM]	1%	7%	.	-20%
COc1ccccc1NCC(=O)c1ccc(Cl)cc1	6%	-2%	.	1%[46.1 µM]	-43%	27%	.	-20%
O=C(CCl)Nc1ccc(N=Nc2ccccc2)cc1	?	-74%	2%	?	-67%	-12%	-3.8%	?
Cc1ccc2nc3sc(C(=O)NCc4ccco4)c(N)c3cc2c1	?	-8%	-27%	-24%	-4%	24%	-13%	7%
COc1cc2c(cc1NC(=O)c1cccnc1)oc1ccccc12	?	-12%	?	-1%	-176%	40%[activator]	-8.4%	-29%
Cc1cccc(-c2ocnc2C(=O)Nc2ccccc2C(=O)N2CCCC2)c1	.	-2%	.	-30%[46.1 µM]	-11%	-13%	.	2%
COC(=O)CN(c1ccccn1)S(=O)(=O)c1ccccc1	4%	2%	-7%	9%	-11%	21%	0.7%	13%
CCCC(=O)Nc1ccc2nn(-c3ccc(CC)cc3)nc2c1	19%[46.1 µM]	.	3%	?	.	54%[activator]	-2.0%	.
O=C(CCc1nnc(CCCc2ccccc2)o1)NCCN1CCOC1=O	23%[46.1 µM]	0%	.	?	-1%	0%	.	-21%
COc1ccc(C2(C)NC(=O)NC2=O)cc1OC (stereo not given)	-2%[46.1 µM]	6%	.	20%[46.1 µM]	-1%	-8%	.	4%
COC(=O)n1ccc(C(=O)Nc2ccccc2F)n1	7%	-2%	-4%	5%	0%	37%[activator]	5.5%	3%
CC(C)(C)c1ccc(/C=C/C(=O)N2CCc3ccccc3C2)cc1	11%	-12%	?	5%	11%	.	-2.4%	-8%
COC(=O)CCn1nc(-c2ccc(Cl)cc2)c2ccccc2c1=O	.	0%	.	.	-3%	-5%	.	4%
COc1ccc(C(=O)CN2C(=O)NC(C)(c3ccc(C)cc3)C2=O)cc1OC (stereo not given)	-2%	2%	8%	14%	-5%	-10%	-1.2%	-6%
Cc1ccc(CNc2oc(-c3cccs3)nc2C#N)cc1	-7%	-26%	?	-2%	-94%	.	5.3%	5%
CCOc1ccc(CNC(=O)c2ccc3c(c2)N(CC)CCS3)cc1	.	-1%	11%	-28%[46.1 µM]	-3%	-10%&-2%	-0.9%	-2%
Cc1cc(C)c(C(=O)COC(=O)c2ccc([N+](=O)[O-])o2)cc1C	1%	-3%	.	2%[46.1 µM]	.	-10%	.	?
Cc1c(Cc2ccccc2)c(=O)oc2c(C)c(OC(C)C(=O)N[C@@H](Cc3ccccc3)C(=O)O)ccc12 (stereo not given in full)	.	2%	.	.	?	-25%	.	48%
COCC(=O)Nc1sc2c(c1C(=O)OC)CCC(C)C2 (stereo not given)	16%	-5%	?	-1%	-1%	7%	-4.9%	-1%
COc1cccc(N2CCN(CC(=O)c3c[nH]c4ccc(OC)cc34)CC2C)c1 (stereo not given)	-6%	9%	18%	-14%	?	0%	-3.2%	?
CC(C)CN(C(=O)CN(C)CC(=O)Nc1ccccc1C#N)c1c(N)n(CC(C)C)c(=O)[nH]c1=O	13%[46.1 µM]	-6%	.	7%[46.1 µM]	.	9%	.	8%
CCCNS(=O)(=O)c1ccc(OCC(=O)N(C)Cc2ccccc2)cc1	.	0%	.	.	-3%	64%[activator]	.	1%
O=[N+]([O-])c1ccccc1N=Nc1ccc(O)cc1O	-7%	.	.	5%	.	36%[activator]	.	-22%
COc1ccc(NC(=S)N(CCCN2CCCCCC2)Cc2cccs2)cc1	14%	0%	.	6%[46.1 µM]	.	10%	.	-5%
Cc1ccc2scc(CN3CCCC3)c2c1	-10%	.	.	?	.	0%	.	1%
O=C(Nc1ccc(-c2nnc3n2CCCCC3)cc1)c1ccco1	13%	0%	-16%	-4%	-4%	-24%	-3.4%	8%
CCOc1cc(C(=O)NCc2nnc(SCC(=O)OC)n2C)cc(OCC)c1OCC	25%	3%	0%	19%	2%	-4%	5.7%	30%
COC(=O)c1ccc(COc2ccccc2/C=N/NC(=O)c2cccnc2)cc1	-24%[46.1 µM]	-2%	.	?	.	8%	.	-3%
COc1cccc2c(Nc3ccccc3C)cc(C)nc12	?	0%	.	-37%	-2%	?	.	-10%
COc1ccc(NC(=O)CCCn2cnc3ccccc3c2=O)cc1	13%	-2%	.	?	1%	14%	.	-11%
Cc1cc(=O)cc(C)n1-c1ccc(Br)cc1	?	7%	.	-24%[46.1 µM]	.	-1%	.	25%
COc1ccc(NC(=O)c2ccc3oc(=O)c(S(=O)(=O)c4ccc(C)cc4)cc3c2)cc1OC	-3%[46.1 µM]	.	9%	-20%[46.1 µM]	.	?	2.8%	.
Cc1cnc(NC(=O)c2ccc3ncsc3c2)s1	?	1%	.	?	.	18%	.	-22%
CCn1c(SCC(N)=O)nnc1-c1ccc(S(=O)(=O)N2CCN(C)CC2)cc1	21%	11%	-8%	27%	-3%	3%	5.1%	17%
O=C(COC(=O)CSc1cc(Cl)ccc1Cl)Nc1ncc(C(F)(F)F)cc1Cl	0%	6%	-6%	17%	-1%	-4%	-23%	-3%
CC(NC(=S)Nc1c(Br)cccc1OC(F)F)C(C)(C)C (stereo not given)	0%	?	-9%	2%	-4%	-5%	-2.8%	-5%
O=C(CSC1=NCCS1)Nc1nc2c(s1)CCCC2	24%	5%	-20%	24%	?	20%	-9.8%	2%

A second format for part of the listing above.
smiles | Lassa entry inh | SARS PLP yeast | Cruzain noTriton | Marburg entry inh | NS1 inh | 2A StopGo | Cruzain Triton | RE007 growth inh
CCOc1cc(C(=O)NCc2nnc(SCC(=O)OC)n2C)cc(OCC)c1OCC | 25% | 3% | 0% | 19% | 2% | -4% | 5.7% | 30%
COC(=O)c1ccc(COc2ccccc2/C=N/NC(=O)c2cccnc2)cc1 | -24%[46.1 µM] | -2% | . | ? | . | 8% | . | -3%
COc1cccc2c(Nc3ccccc3C)cc(C)nc12 | ? | 0% | . | -37% | -2% | ? | . | -10%
COc1ccc(NC(=O)CCCn2cnc3ccccc3c2=O)cc1 | 13% | -2% | . | ? | 1% | 14% | . | -11%
Cc1cc(=O)cc(C)n1-c1ccc(Br)cc1 | ? | 7% | . | -24%[46.1 µM] | . | -1% | . | 25%
COc1ccc(NC(=O)c2ccc3oc(=O)c(S(=O)(=O)c4ccc(C)cc4)cc3c2)cc1OC | -3%[46.1 µM] | . | 9% | -20%[46.1 µM] | . | ? | 2.8% | .

An excerpt of these results, bar-delimited.
structure | Lassa entry inh | SARS PLP yeast | Cruzain noTriton | Marburg entry inh | NS1 inh | 2A StopGo | Cruzain Triton | RE007 growth inh
CCn1c(SCC(N)=O)nnc1-c1ccc(S(=O)(=O)N2CCN(C)CC2)cc1 | 21% | 11% | -8% | 27% | -3% | 3% | 5.1% | 17%
O=C(COC(=O)CSc1cc(Cl)ccc1Cl)Nc1ncc(C(F)(F)F)cc1Cl | 0% | 6% | -6% | 17% | -1% | -4% | -23% | -3%
CC(NC(=S)Nc1c(Br)cccc1OC(F)F)C(C)(C)C (stereo not given) | 0% | ? | -9% | 2% | -4% | -5% | -2.8% | -5%
O=C(CSC1=NCCS1)Nc1nc2c(s1)CCCC2 | 24% | 5% | -20% | 24% | ? | 20% | -9.8% | 2%
